Source: PubChem (several laboratories)
YopH inh – YopH (Yersinia) phosphatase inhibition; fluorescence Ex485/Em525; inhibition, %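 (about 10 µM by stock and volumes)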; hit rate 0.16% among 140,000; AID 898;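 active = inhibition of 50% or more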;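 note: controls were vehicle for no effect and minimum signal wells for full effect; inactives centre near -20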
RecA splice inh – Mtb RecA intein splicing inhibition; P9WHJ3; cell-free RecA intein splicing, fluorescence; inhibition, %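 (about 9 µM by stock and volumes)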; hit rate 0.75% among 290,000; AID 2221; in the data active = inhibition above about 30%; inconclusive = no clear call, values can overlap the other calls;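 note: 0% = vehicle wells and 100% = reference inhibitor control wells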
Target sequence (P9WHJ3 whole entry, looked up, canonical isoform): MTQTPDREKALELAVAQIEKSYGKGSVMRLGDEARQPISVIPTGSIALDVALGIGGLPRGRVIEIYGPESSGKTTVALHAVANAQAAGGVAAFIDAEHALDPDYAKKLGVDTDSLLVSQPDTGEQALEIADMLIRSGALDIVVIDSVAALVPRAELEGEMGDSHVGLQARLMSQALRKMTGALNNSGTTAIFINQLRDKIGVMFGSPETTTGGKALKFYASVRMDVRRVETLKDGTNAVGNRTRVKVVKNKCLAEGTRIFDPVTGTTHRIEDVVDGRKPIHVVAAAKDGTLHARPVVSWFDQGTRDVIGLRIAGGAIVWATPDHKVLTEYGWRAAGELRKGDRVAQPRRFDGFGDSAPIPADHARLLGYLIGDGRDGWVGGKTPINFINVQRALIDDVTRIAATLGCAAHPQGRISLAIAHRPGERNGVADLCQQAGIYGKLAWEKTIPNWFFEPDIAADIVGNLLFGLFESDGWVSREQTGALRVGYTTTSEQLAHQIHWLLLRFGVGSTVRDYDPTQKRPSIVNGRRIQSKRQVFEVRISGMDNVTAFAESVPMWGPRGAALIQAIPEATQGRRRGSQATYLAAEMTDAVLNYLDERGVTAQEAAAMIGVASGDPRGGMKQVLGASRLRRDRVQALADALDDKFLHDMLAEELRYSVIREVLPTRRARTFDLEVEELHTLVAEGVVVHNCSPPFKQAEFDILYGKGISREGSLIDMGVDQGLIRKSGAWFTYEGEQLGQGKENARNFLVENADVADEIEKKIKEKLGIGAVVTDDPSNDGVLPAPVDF
Arbovirus anti – blocks arbovirus infection; arbovirus infection cell-based antiviral screen; inhibition, % at 10 µM; hit rate 0.37% among 200,000; AID 1251;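 active = inhibition from about 30%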;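 note: bluetongue infection of BSR cells; cell survival read as ATP light after 72 h; 0% = infected wells without compound and 100% = uninfected wells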
Mtb growth – M. tuberculosis H37Rv growth inhibitors, H37Rv strain (AID 1626); M. tuberculosis H37Rv growth inhibition; higher % means a stronger effect; inhibition, % at 10 µM, or IC50 in µM where a hit was titrated; hit rate 0.95% among 220,000;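 active = confirmed in a dose series; inconclusive = inhibition above 80% but not taken into the dose series; inactive = below 80% or under 30% at every dose of the series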;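 note: bacteria incubated seven days before Alamar blue readout; 0% = bacteria only wells and 100% = bacteria with antibiotic wells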
Mtb betalactam – beta-lactam sensitization of Mtb H37Rv; M. tuberculosis H37Rv growth with meropenem, percent inhibition; hits of this screen are not shown here; inhibition, % at 25 µM; hit rate 0.27% among 330,000; AID 434955;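 active = about 74% or more and at least 40 points above the plate without the antibiotic, then above 30% in a dose series; inconclusive = first-round hits that could not be retested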;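 note: growth measured after seven days incubation then overnight dye step; 0% = bacteria only wells and 100% = bacteria with antibiotic; twin plates without the antibiotic show which effects depend on it; some results filed as inactive read as strong as hits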
Arbovirus anti repeat – further read-out of Arbovirus anti, marked with its call; inhibition, %; measured here: 10K subset replicate screen; many hits read low in the repeat;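 first of two repeat runs on a subset; 0% = infected and 100% = uninfected wells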
* hit, by the source's call; ? = inconclusive; . = no result given. A portion of the library; rates above refer to the full screens.

Start of the data: the first 3 records (preview)
SMILES	YopH inh	RecA splice inh	Arbovirus anti	Mtb growth	Mtb betalactam	others
COc1cccc(CN(C)CC(O)COc2cc(Cl)ccc2Cl)c1 (stereo not drawn)	.	-1.2	.	.	11
Cc1cc(C)c(O)c(-c2cc(C(=O)Nc3c(C)n(C)n(-c4ccccc4)c3=O)[nH]n2)c1	.	-1.8	.	-2%	-3
O=C(N/N=C/c1cccnc1)c1cc(-c2ccccc2Cl)nc2ccccc12	.	3.6	.	.	4

Results, repeating the preview:
SMILES	YopH inh	RecA splice inh	Arbovirus anti	Mtb growth	Mtb betalactam	others
COc1cccc(CN(C)CC(O)COc2cc(Cl)ccc2Cl)c1 (stereo not drawn)	.	-1.2	.	.	11
Cc1cc(C)c(O)c(-c2cc(C(=O)Nc3c(C)n(C)n(-c4ccccc4)c3=O)[nH]n2)c1	.	-1.8	.	-2%	-3
O=C(N/N=C/c1cccnc1)c1cc(-c2ccccc2Cl)nc2ccccc12	.	3.6	.	.	4
COC(=O)c1ccccc1Sc1c(/C=N/OCc2ccc(Cl)cc2)c(C(F)(F)F)nn1C	-12	-2.6	13	1%	-9
CCc1c(C)nc(N2CCOCC2)[nH]c1=O	-26	-3.7	2	-12%	-18
COc1ccccc1N(C(=O)c1ccco1)C(C(=O)NC1CCCC1)c1ccncc1 (stereo not drawn)	.	-4.2	.	.	-8
O=C(Nc1ccccc1)N1CCN(CCc2ccccc2)CC1	.	1.4	11	-2%	-2
O=c1c2cc(NC(=S)NC3CC3)ccc2nc2n1CCCCC2	.	-1.9	5	3%	0
Cc1ccc(-c2ccc(C#N)c(=O)n2CC(=O)N(C)C)cc1	.	0.5	.	.	5
O=C(O)C1CCCCC1C(=O)NCCCCc1ccccc1 (stereo not drawn)	-22	0.8	-2	-1%	-14
CC(C)(C)NC(=O)CSc1nnc(C2CC2)n1-c1ccccc1	.	-1.3	8	1%	1
CN(C)S(=O)(=O)Nc1ccccn1	.	1.9	.	-2%	-6
COc1ccc(C(=O)Nn2cnc3ccccc3c2=O)c(OC)c1	-21	-4.0	2	.	7
CCn1c2ccccc2c2nnc(SCC(=O)OCN3C(=O)c4ccccc4C3=O)nc21	-48	-0.7	7	-2%	2
CC(=O)c1cccc(NC(=O)Nc2ccc3c(c2)CCC3)c1	.	2.0	.	.	-13
C=C(C)CSc1nnc(-c2cccc(Cl)c2)n1N	-58	1.9	-6	3%	-18	Arbovirus anti repeat=3
CCOc1cnn(Cc2ccccc2)c(=O)c1SCc1ccccc1	-18	1.2	1	6%	5
COc1ccc(N(C(=O)CCl)C(C(=O)NCCc2ccccc2)c2cccs2)cc1 (stereo not drawn)	-19	76*	-35	67%	89
COc1ccc(N(C(=O)Cn2nnc3ccccc32)C(C(=O)NCc2ccco2)c2cccnc2)cc1 (stereo not drawn)	-29	-2.2	8	-10%	-3
COc1ccc(/C=N/Nc2cc(=O)n(C)c(=O)n2C)cc1OC	3	-0.1	-9	1%	1
COc1ccc(C2C(C(=O)c3ccco3)=C(O)C(=O)N2c2nnc(C)s2)cc1 (stereo not drawn)	.	-9.0	5	-8%	4
Cc1nc(NC(=O)C2CC2)sc1C(=O)Nc1ccc(Br)cc1	.	0.2	.	.	2
C=CC[n+]1c(-c2ccc(C)cc2)csc1NNC(=O)Nc1ccccc1	6	.	13	12%	8
CCC(C)(C)n1nnnc1C(c1cccc(C#N)c1)N1CCN(c2cc(C)ccc2C)CC1 (stereo not drawn)	.	1.1	.	14%	-1
CCCCN(C(=O)CSCC(=O)Nc1cccc(C)c1)c1c(N)n(CCCC)c(=O)[nH]c1=O	.	-1.5	.	.	-9
NC(=O)CSC1=Nc2ccccc2C2=NC(CCC(=O)NCc3ccc(F)cc3)C(=O)N12 (stereo not drawn)	27	-5.5	8	-3%	1
O=C(NCC1CCN(C(=O)c2ccc([N+](=O)[O-])cc2)CC1)C(=O)Nc1ccccc1	.	-1.6	-1	2%	4
COCCNC(=S)N/N=C(\C)c1ccc(OC)cc1	-30	0.2	0	-1%	93
CN(C)c1ccc(C2OC(=O)C(C)(C)C(=O)C2(C)C)cc1 (stereo not drawn)	-3	-0.8	1	0%	1
CC(=O)Nc1ccc(S(=O)(=O)NNC(=S)NCC2CCCO2)cc1 (stereo not drawn)	.	-6.5	.	.	2
O=C1CSC(c2ccc([N+](=O)[O-])cc2)N1c1ccccc1 (stereo not drawn)	.	0.3	.	.	-4
CC(C)OC(=O)CC1C(=O)NCCN1C(=S)NC(=O)c1ccccc1 (stereo not drawn)	.	-0.4	0	4%	2
O=C(NCC1CCCO1)C(=O)N/N=C/c1ccc(OCc2ccccc2Cl)cc1 (stereo not drawn)	.	0.3	.	.	-12
O=C1CCCCN1CCC(=O)N1CCCC(Nc2ccc(F)c(F)c2)C1 (stereo not drawn)	.	-3.4	.	.	0
O=C(NCCCN1CCN(c2ccccc2F)CC1)C1CCN(S(=O)(=O)c2cccs2)CC1	-30	0.4	13	-10%	-3
CSCCC(NC(=O)C12CC3CC(CC(C3)C1)C2)C(=O)OCC(=O)c1ccc(Cl)cc1 (stereo not drawn)	-24	2.3	-1	-3%	-2
N#Cc1c(C(F)(F)F)cc(-c2ccccc2)nc1SCCN1CCOCC1	-21	1.9	-4	-10%	6
Cc1ccc(NC(=O)c2sc(Cl)nc2-c2ccccc2)cc1C	-30	-2.3	-10	3%	-9
CC(C)c1cc(Br)ccc1OCCN1C(=O)NC(C)(C)C1=O	.	1.6	7	2%	4
COc1cccc(C(=O)NCCS(=O)(=O)NC2CCCC2)c1	.	0.3	.	.	-8
Cc1ccc2nc(NC(=O)CN(C)S(=O)(=O)c3ccc(Br)s3)sc2c1	-21	18	15	?	8
COc1ccc(NC(=O)COC(=O)c2ccco2)c([N+](=O)[O-])c1	.	.	13	3%	-2
Cc1nn(-c2ccccc2)c2sc(C(=O)NCCN3CCOCC3)cc12	-6	7.2	-11	-14%	6
CC1N(C)c2cc(NC(=O)c3ccco3)c(P(=O)(Nc3ccc([N+](=O)[O-])cc3)N3CCOCC3)cc2C1(C)C (stereo not drawn)	.	4.4	-13	?	69
O=C(NNC(=O)c1cc2cc(Br)ccc2oc1=O)c1ccc(O)cc1	.	1.8	3	2%	11
CC(=O)NC(CC(=O)Nc1ccc2c(c1)OCCO2)c1ccccc1 (stereo not drawn)	.	-0.3	.	.	3
CCSc1ccccc1C(=O)NCc1ccc2c(c1)OCO2	-15	2.9	-3	3%	-23
Cc1ccc(NC(=O)CN2C(=O)NC(Cc3ccccc3)C2=O)c(Br)c1 (stereo not drawn)	.	-0.9	-7	6%	-3

A section from further up:
SMILES	YopH inh	RecA splice inh	Arbovirus anti	Mtb growth	Mtb betalactam	others
N#Cc1c(C(F)(F)F)cc(-c2ccccc2)nc1SCCN1CCOCC1	-21	1.9	-4	-10%	6
Cc1ccc(NC(=O)c2sc(Cl)nc2-c2ccccc2)cc1C	-30	-2.3	-10	3%	-9
CC(C)c1cc(Br)ccc1OCCN1C(=O)NC(C)(C)C1=O	.	1.6	7	2%	4

New compounds follow:
SMILES	YopH inh	RecA splice inh	Arbovirus anti	Mtb growth	Mtb betalactam	others
COc1ccccc1NC(=O)c1nn(C)c(C(=O)Nc2ccccc2OC)c1[N+](=O)[O-]	.	-3.4	.	.	-5
O=C(NCCCc1ccccc1)c1ccc(-n2cncn2)c([N+](=O)[O-])c1	.	-3.6	.	.	-17
Cc1ccc2nc(-c3ccccc3N)[nH]c2c1	.	-41	1	7%	3
CNC(=O)CN(c1ccc(C(C)C)cc1)S(C)(=O)=O	-18	-2.0	0	-12%	2	Arbovirus anti repeat=-1
CCn1c(=O)c(C)nn2c3ccccc3nc12	-42	3.5	2	-1%	3
O=C(N/N=C/c1c[nH]c2ccccc12)c1ccc(Br)cc1	.	-0.5	.	.	-5
CSc1ncccc1C(=O)OCC(=O)c1cc2ccccc2o1	-35	0.3	-6	-9%	3	Arbovirus anti repeat=-4
COc1ccc2nc(SCC(=O)NC(C)(C)C)[nH]c2c1	-35	-0.5	0	0%	2
C=CCN1C(=Nc2cccnc2)SCC1(O)c1ccc(C)cc1 (stereo not drawn)	-29	7.3	1	-2%	3
Cc1cc(NC(=O)COC(=O)c2c(C)noc2C)ccc1Br	.	.	15	-1%	-3
Cc1nn(Cc2ccccc2)c(Cl)c1C(=O)OC(C)C(=O)Nc1ccc(F)cc1Cl (stereo not drawn)	7	-0.9	-14	6%	-6
O=C(CCCn1cnc([N+](=O)[O-])n1)Nc1cccc(O)c1	.	-1.7	-1	2%	-6
CCCS(=O)(=O)N1CCN(CC2CC3C=CC2C3)CC1 (stereo not drawn)	-38	-0.3	-7	0%	11
Cc1ccc(C2C(C#N)=C3N=C(N)c4ccccc4N3C3=C2C(=O)CCC3)cc1 (stereo not drawn)	.	1.2	.	34%	81
O=C(Nc1ccc(N2CCCC2)c(Cl)c1)c1ccco1	-13	2.3	3	0%	1	Arbovirus anti repeat=0
CCCC(=O)Nc1nc2c(s1)COc1ccccc1-2	.	-1.2	.	.	3
COc1ccc(C2=NCC(=O)N(CC(=O)NCc3ccco3)c3sc4c(c32)CCCC4)cc1	-52	2.8	-9	0%	16
O=C(CN1CCC(NC(=O)c2ccccc2F)CC1)Nc1ccc2c(c1)OCCO2	.	1.4	-6	-2%	2
COc1cccc(N2CCN(C(=O)CCC(=O)N3CCOc4ccc(C)cc43)CC2)c1	.	0.5	.	.	5
CCOC(=O)c1csc(NC(=O)CSc2nnnn2-c2ccc(OC)cc2)n1	-29	-1.0	1	-7%	3
CC(c1ccccc1F)n1cc(C(=O)NCCc2ccco2)nn1 (stereo not drawn)	-32	0.3	-7	-1%	8	Arbovirus anti repeat=-13
CCCCc1ccc(NC(=O)CSc2nc3ncccc3[nH]2)cc1	.	-0.1	.	.	98
Cc1ccc(C(C)n2cc(C(=O)NCc3ccccn3)nn2)cc1 (stereo not drawn)	.	-0.8	8	5%	-2
COc1ccc(C(=O)c2ccc(N(C)C)cc2)c(OC)c1	-48	3.4	-19	4%	2

5 compounds out of the list, arranged by length of the SMILES, rising:
SMILES	YopH inh	RecA splice inh	Arbovirus anti	Mtb growth	Mtb betalactam	others
CCc1c(C)nc(N2CCOCC2)[nH]c1=O	-26	-3.7	2	-12%	-18
O=C(CCCn1cnc([N+](=O)[O-])n1)Nc1cccc(O)c1	.	-1.7	-1	2%	-6
CCOC(=O)c1csc(NC(=O)CSc2nnnn2-c2ccc(OC)cc2)n1	-29	-1.0	1	-7%	3
Cc1ccc(NC(=O)CN2C(=O)NC(Cc3ccccc3)C2=O)c(Br)c1 (stereo not drawn)	.	-0.9	-7	6%	-3
O=C(NCC1CCCO1)C(=O)N/N=C/c1ccc(OCc2ccccc2Cl)cc1 (stereo not drawn)	.	0.3	.	.	-12

New compounds follow
SMILES	YopH inh	RecA splice inh	Arbovirus anti	Mtb growth	Mtb betalactam	others
CC1=Nn2c(nnc2-c2ccco2)SC1	-13	-2.4	0	-3%	-6
CC12CCC(C(=O)Nc3ccncc3)(CC1O)C2(C)C (stereo not drawn)	.	2.8	.	-5%	-6
O=C(CNS(=O)(=O)c1ccc(Br)cc1)NCc1cccnc1	.	-1.8	.	.	-6
O=C(COc1ccc(-c2nnco2)cc1)N1CCN(S(=O)(=O)c2ccc3ccccc3c2)CC1	-29	-3.7	-11	8%	-5
COc1nc(C)ccc1-c1noc(-c2ccco2)n1	-23	0.1	-4	-2%	0
CCCOc1cccc(C(=O)Nc2ccc3c(c2)OCCO3)c1	.	2.3	.	.	-6
Cc1cccn2c(=O)c(C=Nc3ccccc3)c(NCc3ccco3)nc12	-46	-5.5	2	5%	4
O=c1[nH]c(=O)n(CCC2=CCCCC2)c(O)c1C=NC1CCN(Cc2ccccc2)CC1	-11	.	1	11%	5
CC(C)COC(=O)c1cc(=O)[nH]c2ccccc12	-35	0.8	-2	-2%	-5	Arbovirus anti repeat=3
CC(=O)Nc1ccc(S(=O)(=O)N2CCSC2C(=O)O)cc1 (stereo not drawn)	0	.	7	-9%	-5
CCC(=O)N(C1=C(NC(C)C)C(=O)c2ccccc2C1=O)C(C)C	.	15	-8	4%	-2
O=C(NCCS(=O)(=O)N1CCCCCC1)c1ccc(F)cc1	.	-0.8	.	.	1
CCC1Sc2ccc(S(=O)(=O)CCC(=O)N3CCc4ccccc43)cc2NC1=O (stereo not drawn)	.	-2.5	.	.	6
C=CCN1C(=O)S/C(=C/c2ccsc2)C1=O	-38	-2.7	-2	2%	-13
Cc1cccc(Nc2ncnc3onc(-c4cccc(Cl)c4)c23)c1C	.	9.6	.	.	8
CSc1ccc(CN2CCCC(N3CCN(c4ccccc4)CC3)C2)cc1 (stereo not drawn)	.	1.5	.	.	-1
O=C(c1cccc(Br)c1)N1CCN(C(=O)N2CCCCC2)CC1	-15	-0.1	5	-2%	3
O=C(NCc1ccccn1)C1CCN(S(=O)(=O)N2CCC3(CC2)OCCO3)CC1	-26	0.1	1	-7%	?
COC(=O)c1[nH]c2c(c1C)C(=O)CC(c1cccs1)C2 (stereo not drawn)	6	1.1	-15	-6%	0
